GIV Gai3 FP = inhibitors of GIV peptide binding to Galpha-i3, primary screen, biochemical, fluorescence polarization, FITC-GIV GBA peptide, rat Galphai3; 90 min; active compounds read low; scaled: aluminum fluoride 0%, vehicle 100%; percent of control (FP), % (no concentration beside the values); actives 0.42% (n = 210,000); Guanine nucleotide-binding protein G(i) subunit alpha-3 (Rattus norvegicus), P08753;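 active means replicate mean at 85% of control or lower, very high polarization wells dropped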;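 further: wells of about 15 µL received 100 nL stock; the first replicate is given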
Target sequence (P08753 whole entry, looked up): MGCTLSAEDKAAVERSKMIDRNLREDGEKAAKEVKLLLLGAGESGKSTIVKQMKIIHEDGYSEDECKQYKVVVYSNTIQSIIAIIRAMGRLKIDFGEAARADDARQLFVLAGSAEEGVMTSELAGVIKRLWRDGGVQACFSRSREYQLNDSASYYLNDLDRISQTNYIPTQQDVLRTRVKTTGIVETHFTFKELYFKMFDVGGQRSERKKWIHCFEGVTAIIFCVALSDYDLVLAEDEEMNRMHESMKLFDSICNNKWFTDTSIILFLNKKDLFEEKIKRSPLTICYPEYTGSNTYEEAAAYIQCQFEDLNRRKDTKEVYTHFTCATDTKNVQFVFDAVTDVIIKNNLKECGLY
* marks the source's active call; other numbers are inactive results. A portion of the library; the hit share may differ from the screen's.

Sample of the layout (7 entries):
Screening O=C(Nc1ccc2c(c1)OCO2)c1nnc(C2CCN(S(=O)(=O)c3cc(F)ccc3F)CC2)s1 returned GIV Gai3 FP 100.
Cc1cccc(C)c1-n1c(=S)[nH]c2[nH]ncc2c1=O was read as GIV Gai3 FP 105.
Cc1cc2ncc(-c3ccc(Br)cc3)nc2cc1C was read as GIV Gai3 FP 111.
For Cc1nnc(-c2cccn2CC(=O)Nc2ccc(Cl)cc2)o1 the results were GIV Gai3 FP 102.
Cn1nnc(NCc2ccc(-c3ccc(Cl)cc3)o2)n1 was read as GIV Gai3 FP 101.
For CCOc1ccc(C2c3[nH]c4ccccc4c3CCN2C(=O)c2ccccc2C)cc1 (configuration not stated) the results were GIV Gai3 FP 98.
For O=C(CSc1nnc2c3ccccc3nc(-c3ccccc3)n12)Nc1ccc2c(c1)OCO2 the results were GIV Gai3 FP 103.

The list itself (from the top)
Screening O=C(Nc1ccc2c(c1)OCO2)c1nnc(C2CCN(S(=O)(=O)c3cc(F)ccc3F)CC2)s1 returned GIV Gai3 FP 100.
Cc1cccc(C)c1-n1c(=S)[nH]c2[nH]ncc2c1=O was read as GIV Gai3 FP 105.
Cc1cc2ncc(-c3ccc(Br)cc3)nc2cc1C was read as GIV Gai3 FP 111.
For Cc1nnc(-c2cccn2CC(=O)Nc2ccc(Cl)cc2)o1 the results were GIV Gai3 FP 102.
Cn1nnc(NCc2ccc(-c3ccc(Cl)cc3)o2)n1 was read as GIV Gai3 FP 101.
For CCOc1ccc(C2c3[nH]c4ccccc4c3CCN2C(=O)c2ccccc2C)cc1 (configuration not stated) the results were GIV Gai3 FP 98.
For O=C(CSc1nnc2c3ccccc3nc(-c3ccccc3)n12)Nc1ccc2c(c1)OCO2 the results were GIV Gai3 FP 103.
CCC(=O)Nc1cccc(-c2noc(C3CCCN(C(=O)c4ccccc4)C3)n2)c1 (configuration not stated) was read as GIV Gai3 FP 104.
For CCOC(=O)C1=C(C)NC2=C(C(=O)C(C(=O)OCC)C(c3ccccc3OC)C2)C1c1cc(OC)c(OC)c(OC)c1 (configuration not stated) the results were GIV Gai3 FP 103.
Screening O=C(Cc1ccc(F)cc1)N1CCN(C(=O)c2cc3cc(Br)ccc3[nH]2)CC1 returned GIV Gai3 FP 99.
Clc1ccccc1Nc1nc2nonc2n2cnnc12 was read as GIV Gai3 FP 104.
`COc1ccc(/C=C2\SC(=S)N(Cc3ccccc3)C2=O)cc1Oc1ccc([N+](=O)[O-])cc1[N+](=O)[O-]` gave GIV Gai3 FP 104.
Screening COc1ccc(NC(=O)CCC(=O)c2ccccc2)cc1 returned GIV Gai3 FP 100.
Screening Cc1ccccc1-c1nn2c(=O)cc(CN3CCN(C(=O)c4ccc(Br)cc4)CC3)nc2s1 returned GIV Gai3 FP 98.
Cn1c(N2CCCC(C(=O)NC3CCCCC3)C2)cc(=O)n(C)c1=O (configuration not stated) was read as GIV Gai3 FP 107.
`CCOc1ccc(C(NC(=O)c2cc(OC)c(OC)c(OC)c2)c2cc([N+](=O)[O-])c3cccnc3c2O)cc1` (configuration not stated) gave GIV Gai3 FP 104.
Screening Cc1[nH]nc(-c2c(C)sc(C)c2S(=O)(=O)NCCc2ccc(Cl)cc2)c1C returned GIV Gai3 FP 101.
`COc1ccc(-c2cc(Oc3cccc(C(=O)NCC4CCCO4)c3)ncn2)cc1` (configuration not stated) gave GIV Gai3 FP 99.
`CCCOc1ccccc1N=c1ssc2c1-c1cc(OCC)ccc1NC2(C)C` gave GIV Gai3 FP 109.
`CCCCN(C)S(=O)(=O)c1c(C)nn(-c2ccc(-c3ccccc3)nn2)c1C` gave GIV Gai3 FP 101.

Four compounds out of the list, sorted by length of the SMILES, lowest first:
Clc1ccccc1Nc1nc2nonc2n2cnnc12 was read as GIV Gai3 FP 104.
Screening Cc1ccccc1-c1nn2c(=O)cc(CN3CCN(C(=O)c4ccc(Br)cc4)CC3)nc2s1 returned GIV Gai3 FP 98.
`CCOc1ccc(C(NC(=O)c2cc(OC)c(OC)c(OC)c2)c2cc([N+](=O)[O-])c3cccnc3c2O)cc1` (configuration not stated) gave GIV Gai3 FP 104.
`COc1ccc(/C=C2\SC(=S)N(Cc3ccccc3)C2=O)cc1Oc1ccc([N+](=O)[O-])cc1[N+](=O)[O-]` gave GIV Gai3 FP 104.

Other structures
For COc1ccc(S(=O)(=O)Cc2nc(-c3ccccc3)no2)cc1 the results were GIV Gai3 FP 98.
For CCOc1ccccc1N1C(=O)C2C3c4ccccc4C(C=O)(c4ccccc43)C2C1=O (configuration not stated) the results were GIV Gai3 FP 113.
Screening CC(=O)C12c3ccccc3C(c3ccccc31)C1C(=O)N(c3ccccc3C#N)C(=O)C12 (configuration not stated) returned GIV Gai3 FP 103.
For CCC(C)NC(=O)c1ccc(N2CC3CC(C2)c2cccc(=O)n2C3)c(NC(=O)c2cc3ccccc3oc2=O)c1 (configuration not stated) the results were GIV Gai3 FP 104.
CCN1C(=S)N(CC)C2(O)c3ccccc3C(=O)C12O (configuration not stated) was read as GIV Gai3 FP 102.
For CCOC(=O)CC1(NC(=O)N2CCCCCC2c2ccc(C)s2)CCCCC1 (configuration not stated) the results were GIV Gai3 FP 104.
Screening COc1ccc(-n2ncc3c(N4CCN(c5cccc(OC)c5)CC4)ncnc32)cc1 returned GIV Gai3 FP 108.
For CCSc1nc2ccc(NS(=O)(=O)c3cccc(F)c3)cc2s1 the results were GIV Gai3 FP 104.
CCOC(=O)c1c(NC(=O)C(C)Sc2nnc(CNC(=O)c3ccc(OC)cc3)n2C)sc2c1CCCCC2 (configuration not stated) was read as GIV Gai3 FP 107.
Screening CCOC(=O)c1c(C)n(CCOc2cccc(OC)c2)c2c1cc(O)c1ccccc12 returned GIV Gai3 FP 103.
`CCOC(=O)N1CCC(NC(=O)c2ccc(N3CC4CC(C3)c3cccc(=O)n3C4)c(NC(=O)c3cccnc3)c2)CC1` (configuration not stated) gave GIV Gai3 FP 103.
`C=CCOc1ccc(/C=c2\sc3nc(-c4ccccc4OC(C)=O)nn3c2=O)cc1` gave GIV Gai3 FP 116.
For Cn1cccc1C(=O)C(=O)N1CCN(C(=O)c2ccco2)CC1 the results were GIV Gai3 FP 103.
For CCOC(=O)CSc1nc2c(sc(=S)n2-c2ccc(C(=O)OCC)cc2)c2nc3ccccc3n12 the results were GIV Gai3 FP 99.
COc1cccc(N2CCN(S(=O)(=O)c3cc(-c4cc(C(F)(F)F)on4)sc3C)CC2)c1 was read as GIV Gai3 FP 97.
Screening COc1ccc(-n2ccc(=O)c(-c3nc(-c4ccc(Cl)cc4)no3)n2)cc1 returned GIV Gai3 FP 105.
Screening Cc1ccc(C)c(N2C(=N)S/C(=C\c3ccc(Cl)cc3)C2=O)c1 returned GIV Gai3 FP 103.
COc1cccc(C2N(c3ccccc3)CCN2c2ccccc2)c1O was read as GIV Gai3 FP 123.
For Cc1nn(-c2ccc3nnc(C)n3n2)c(C)c1CCC(=O)Nc1ccc2c(c1)OCO2 the results were GIV Gai3 FP 102.
`COc1ccc2c(c1)NC1(CCN(C(=O)Nc3ccc(Br)cc3)CC1)c1cccn1-2` gave GIV Gai3 FP 111.
`CCOCCCNS(=O)(=O)c1cc(-c2nc(C)cs2)sc1C` gave GIV Gai3 FP 114.
`Cc1cccn2cc(-c3ccc(S(=O)(=O)N(C)C)cc3)nc12` gave GIV Gai3 FP 106.
Screening O=C(c1cccc(N2C(=O)C3C4C=CC(C4)C3C2=O)c1)N1CCN(c2ccccc2)CC1 (configuration not stated) returned GIV Gai3 FP 104.
`Cc1nc(N2CCOCC2)c2c(C)c(C(=O)Nc3c(F)cc(F)cc3Br)sc2n1` gave GIV Gai3 FP 102.
`Cc1ccc(/C(O)=C2\C(=O)C(=O)N(c3ccccn3)C2c2cccc([N+](=O)[O-])c2)cc1` (configuration not stated) gave GIV Gai3 FP 127.
`Cc1cccc(N2CC(O)(c3cccc([N+](=O)[O-])c3)[N+]3=C2SCCC3)c1C` (configuration not stated) gave GIV Gai3 FP 109.
For CCOC(=O)c1sc2nc(SCc3cc(C(C)=O)ccc3OC)n(CCCN3CCCC3=O)c(=O)c2c1C the results were GIV Gai3 FP 105.
`Nc1cc2c(cc1[N+](=O)[O-])S(=O)(=O)c1cc([N+](=O)[O-])c(N)cc1-2` gave GIV Gai3 FP 109.
For O=C(Nc1cnn(-c2ncc(N3CCCCC3)cn2)c1)C1CCCO1 (configuration not stated) the results were GIV Gai3 FP 102.
COc1ccc(NC(=O)CSc2ccc(=O)n(-c3ccc(C)c(C)c3)n2)cc1OC was read as GIV Gai3 FP 95.
Cc1ccccc1C1(c2ccccc2C)CC1C(=O)Nc1cccc(C(F)(F)F)c1 (configuration not stated) was read as GIV Gai3 FP 105.
For Cc1nc(SC2CC(=O)N(c3ccccc3)C2=O)c(C#N)c(C)c1C (configuration not stated) the results were GIV Gai3 FP 110.
CCOC(=O)C1=C(CSc2nc(C)c(C)c(C)c2C#N)OC(N)=C(C#N)C1c1cccc(F)c1 (configuration not stated) was read as GIV Gai3 FP 114.
For CC1=NN(c2ccc(Cl)c(C(=O)O)c2)C(=O)/C1=C/c1cc2c(cc1Br)OCO2 the results were GIV Gai3 FP 122.
Screening O=C1C(=O)N(CCCN2CCOCC2)C(c2ccccc2)/C1=C(\O)c1ccccc1 (configuration not stated) returned GIV Gai3 FP 103.
O=C(Nc1ccc2c(c1)OCCO2)N1CCN(Cc2cc(=O)n3nc(-c4ccc(F)cc4)sc3n2)CC1 was read as GIV Gai3 FP 104.
For O=C1c2ccccc2C(=O)N1CC1c2ccccc2CCN1S(=O)(=O)c1cccs1 (configuration not stated) the results were GIV Gai3 FP 105.
Screening COc1ccc(N2C(=O)C3C4c5ccccc5C(c5ccccc54)C3C2=O)cc1 (configuration not stated) returned GIV Gai3 FP 114.
`CCC1CN(S(=O)(=O)c2cc(-c3cc(C)no3)cs2)c2cc(Cl)ccc2O1` (configuration not stated) gave GIV Gai3 FP 105.
Screening Cc1cc(C2CCCN2S(=O)(=O)c2ccc(Br)s2)on1 (configuration not stated) returned GIV Gai3 FP 97.
For COC(=O)C1=NNC2C(=O)N(c3cccc(C)c3)C(=O)C12 (configuration not stated) the results were GIV Gai3 FP 109.
O=C(NCCc1ccc(Cl)cc1)c1cccc(-c2cc(N3CCCC3)ncn2)c1 was read as GIV Gai3 FP 105.
Screening CCCS(=O)(=O)c1nc2ccc(NS(=O)(=O)c3cccc4nsnc34)cc2s1 returned GIV Gai3 FP 98.
For O=C(Nc1cc(-c2ccsc2)no1)C1CCCC1 the results were GIV Gai3 FP 111.
Screening CCOC(=O)c1c(NC(=O)C(C)Sc2nnc(CNC(=O)c3ccc(OC)c(OC)c3)n2C)sc2c1CCCC2 (configuration not stated) returned GIV Gai3 FP 103.
Screening O=S(=O)(Nc1ccc2c(c1)c1c(n2S(=O)(=O)c2ccccc2)CCC1)c1ccccc1 returned GIV Gai3 FP 117.
For Cc1ccc(N=C(NOCc2ccc(Cl)cc2)c2nonc2N)cc1 the results were GIV Gai3 FP 107.
Screening CC(Cc1ccccc1)NC(=O)C1(c2ccccc2)CCOCC1 (configuration not stated) returned GIV Gai3 FP 108.
For O=c1n(CCc2ccccc2)nc2c(S(=O)(=O)N3CCCCC3)cccn12 the results were GIV Gai3 FP 103.
For Cc1cc(C)c(-c2nc(-c3ccc4c(c3)OCO4)no2)c(=O)[nH]1 the results were GIV Gai3 FP 112.
Screening COc1cc(C2CC(=O)NC(SCC(=O)Nc3cccc(Cl)c3)=C2C#N)ccc1OCc1ccccc1 (configuration not stated) returned GIV Gai3 FP 109.
Screening CC1(C)c2ccccc2N(c2ccccc2)C12C=Cc1cc(Br)cc([N+](=O)[O-])c1O2 (configuration not stated) returned GIV Gai3 FP 105.
O=C(NC1CCS(=O)(=O)C1)c1ccc(NC(=O)c2nsc3ccccc23)cc1 (configuration not stated) was read as GIV Gai3 FP 104.
Screening CCN1/C(=C\C=C\c2n(CC)c3cc([N+](C)(C)C)ccc3[n+]2CC)N(CC)c2cc([N+](C)(C)C)ccc21 returned GIV Gai3 FP 94.
For CCc1ccc(-c2nnc3ccc4ccccc4n23)cc1 the results were GIV Gai3 FP 113.
Cc1nn(-c2ccc3nnc(C)n3n2)c2c1C(c1ccccc1)CC(=O)N2 (configuration not stated) was read as GIV Gai3 FP 105.
Screening O=S1(=O)NC(=NCc2ccc(Cl)cc2)Nc2ccccc21 returned GIV Gai3 FP 104.
For COc1ccc(C2(O)CN(c3cccc(C)c3C)C3=[N+]2CCCS3)cc1OC (configuration not stated) the results were GIV Gai3 FP 116.
`COc1ccc(CCNC(=O)CCn2c(SCC(=O)NCC3CCCO3)nc3ccccc3c2=O)cc1OC` (configuration not stated) gave GIV Gai3 FP 110.
For COc1cccc(CNC(=O)C2(C)CCCN(S(C)(=O)=O)C2)c1 (configuration not stated) the results were GIV Gai3 FP 113.
Cc1oc(-c2ccccc2)nc1Cn1nnc(-c2nc(-c3ccccc3)no2)c1C was read as GIV Gai3 FP 102.
Screening O=c1cc(CSc2nc(NCC3CCCO3)c3ccccc3n2)nc2ccccn12 (configuration not stated) returned GIV Gai3 FP 112.
`CC(=O)Nc1ccc(-c2noc(C3CCCN(C(=O)c4ccc(F)c(F)c4)C3)n2)cc1` (configuration not stated) gave GIV Gai3 FP 102.
`COc1cc(C2CC(=O)Nc3c2cnn3-c2nc3ccccc3s2)ccc1OCCc1ccccc1` (configuration not stated) gave GIV Gai3 FP 106.
`COc1ccccc1N1CCN(C(=O)CCCNC(=O)Cn2cnc3sc4c(c3c2=O)CCCC4)CC1` gave GIV Gai3 FP 108.
Cc1c(C(=O)Nc2ccccn2)sc2ncnc(N3CCN(c4ccccc4)CC3)c12 was read as GIV Gai3 FP 105.
For C[C@]12N=c3s/c(=C/c4ccc([N+](=O)[O-])cc4)c(=O)n3C(c3ccccc3O1)C2C(=O)Nc1ccccc1 (some centres not stated) the results were GIV Gai3 FP 107.
Screening O=C(Nc1nnc(SCc2cc(=O)n3ccccc3n2)s1)c1ccccc1 returned GIV Gai3 FP 104.
`Fc1cccc(CN=C2Nc3ccccc3NC23CCCCCC3)c1` gave GIV Gai3 FP 99.

Source: PubChem BioAssay (ICCB-Longwood Screening Facility, Harvard Medical School)
